# MLL AF4-AF9 inh = MLL-AF4/AF9 protein interaction inhibition; P42568; AlphaScreen, biotin-AF4 peptide binding to FLAG-AF9; inhibition, % at 10 µM; 0.47% of 350,000 active;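 active = every replicate reaching a set inhibition limit, whatever the replicate mean, cut at about 25% in these data; inconclusive = mean inhibition reaches that limit but some replicates miss it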;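 also: 0% = plate neutral control median and 100% = total signal loss; the record names both 10 and 1 µM as test concentration; the first replicate is given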
# Target sequence (P42568 whole entry, looked up): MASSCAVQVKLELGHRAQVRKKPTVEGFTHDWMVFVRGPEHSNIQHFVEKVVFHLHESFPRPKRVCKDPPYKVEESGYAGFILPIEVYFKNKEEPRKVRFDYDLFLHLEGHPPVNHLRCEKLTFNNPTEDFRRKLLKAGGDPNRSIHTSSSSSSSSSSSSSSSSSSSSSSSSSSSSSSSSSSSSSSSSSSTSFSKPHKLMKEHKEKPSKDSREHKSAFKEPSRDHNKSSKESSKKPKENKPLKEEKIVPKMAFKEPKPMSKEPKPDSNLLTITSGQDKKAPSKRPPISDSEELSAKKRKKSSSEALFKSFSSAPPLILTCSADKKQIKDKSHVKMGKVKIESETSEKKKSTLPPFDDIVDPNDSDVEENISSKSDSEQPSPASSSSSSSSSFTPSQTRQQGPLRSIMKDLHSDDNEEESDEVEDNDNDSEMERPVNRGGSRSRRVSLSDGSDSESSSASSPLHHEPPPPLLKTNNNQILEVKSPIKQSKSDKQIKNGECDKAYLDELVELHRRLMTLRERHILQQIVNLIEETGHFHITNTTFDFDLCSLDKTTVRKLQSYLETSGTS
# Vif A3G = inhibitors of Vif binding to APOBEC3G peptide, primary screen, biochemical, TR-FRET, GST-Vif 1-94, biotin-A3G peptide, dose response retest (AID 1117319); 0.57% of 260,000 active; inhibition, %, or IC50 in µM where a hit was titrated; TR-FRET GST-Vif / biotin-A3G peptide binding; higher % means a stronger effect; test concentration not given here; strong numbers were not always called active;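 active = above the screen mean plus three standard deviations and confirmed in dose response; inconclusive = results disagree or hit not tested in dose response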;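 also: Vif residues 1-94 fused to GST binding biotinylated APOBEC3G peptide 110-148; 0% = full assay without inhibitor and 100% = GST in place of GST-Vif; retest series ran down from 100 µM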
# Ecoli rRNA inh = inhibits bacterial ribosomal RNA function over humanized ribosomes; E. coli WT GFP vs humanized-ribosome RFP mutants, fluorescence, 24 h; hits give low values; DMSO median 0, no signal -100; GFP signal change (wild-type ribosome), % (test concentration not listed); 1.6% of 350,000 active; AID 720706;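 active = significant combined selectivity score with lowered wild-type GFP, culture density cut under 30%, mutant RFP and density less affected; inactive = any of these conditions unmet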; also: one replicate is shown; some compounds called inactive have numbers as strong as hits
# ALR H2O2 inh = blocks human ALR sulfhydryl oxidase activity. purified ALR, DTT oxidation, H2O2 HRP-luminol luminescence. AID 485317. inhibition, % (concentration not given with the values). 3.8% of 290,000 active;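 active = mean and each replicate at 75% or more; inconclusive = only one of the two met; inactive = neither met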;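 also: stock transfer was 7.5 nL into about 7.5 µL; 0% = neutral wells and 100% = wells with inactivated enzyme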
# Target sequence (P55789 whole entry, looked up): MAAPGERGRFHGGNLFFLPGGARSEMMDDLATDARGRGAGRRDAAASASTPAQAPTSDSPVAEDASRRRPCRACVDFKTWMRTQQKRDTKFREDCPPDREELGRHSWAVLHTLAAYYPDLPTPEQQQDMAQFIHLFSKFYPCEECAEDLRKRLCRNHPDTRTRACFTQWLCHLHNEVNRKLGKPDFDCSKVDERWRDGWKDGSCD
# HNF4A DNA FP = change in binding of human HNF4 alpha to DNA | activity change, % at 10 µM | 0.3% of 360,000 active | HNF4a-FITC DNA binding, fluorescence polarization, 1 h | P41235; in the data active = activity change above about 30%, passing the limit was not always enough;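 also: controls were the assay level and a saturating level of protein; the project sought stronger binding though the title names inhibitors; some compounds called inactive have numbers as strong as hits; positive values seem to mean higher polarization but the record does not say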
# FGF22 binding = FGF22 (human) thermal shift binding; calls only at 9.99 µM; Q9HCT0; recombinant FGF22 thermal shift, SYPRO orange fluorescence; percent of sucrose octasulfate shift, DMSO zero; AID 651658; 1.5% of 340,000 active;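 active = melting point raised past a set limit in the mean and every replicate; inconclusive = no clear call; three in four hits are not shown here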
# Target sequence (Q9HCT0 whole entry, looked up): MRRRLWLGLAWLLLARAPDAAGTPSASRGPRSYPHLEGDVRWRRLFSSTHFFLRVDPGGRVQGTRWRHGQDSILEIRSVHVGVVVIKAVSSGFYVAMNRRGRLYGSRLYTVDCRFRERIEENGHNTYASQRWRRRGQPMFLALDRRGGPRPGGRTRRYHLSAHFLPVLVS
# Ecoli growth = blocks Escherichia coli growth; OD600, 23 h; hits give low values; OD600 absorbance (concentration not given with the values); 0.21% of 330,000 active; AID 1053175;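 active = OD600 absorbance below the run mean of sample wells minus 3.6 SD, in any replicate, cut at about 0.56 in these data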;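 also: stock transfer was 300 nL into about 60 µL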
# Ecoli rRNA inh OD600 = recorded beside Ecoli rRNA inh, whose call it bears; OD600 change, %; measured here: OD600 growth;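 optical density of the mix in the first replicate; 0 = DMSO median and -100 = no signal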
# Ecoli rRNA inh RFP = also measured in Ecoli rRNA inh; calls as there; RFP signal change, %; measured here: RFP humanized mutant strains;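 first replicate; 0 = DMSO median and -100 = no signal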
# * marks the source's active call; other numbers are inactive results; i = inactive; ? = inconclusive; . = not tested or not shown; & = joins results of further samples. This is a subset (hit frequency here may not be typical).
# Start of the listing, in advance (2 entries):
no.	SMILES	MLL AF4-AF9 inh	Vif A3G	Ecoli rRNA inh	Ecoli rRNA inh OD600	Ecoli rRNA inh RFP	ALR H2O2 inh	HNF4A DNA FP	FGF22 binding	Ecoli growth
1	CC(=O)c1ccc(NC(=O)c2ccc3c(c2)C(=O)N(c2ccccn2)C3=O)cc1	-4.7	.	1	7	-4.9	3	-5.1	i	0.66
2	CS(=O)(=O)N(CCc1ccccc1)CC(=O)N1CCN(c2ccc(F)cc2)CC1	.	-2%	.	.	.	23	1.6	.	0.76

# The whole of this part, from the first entry:
no.	SMILES	MLL AF4-AF9 inh	Vif A3G	Ecoli rRNA inh	Ecoli rRNA inh OD600	Ecoli rRNA inh RFP	ALR H2O2 inh	HNF4A DNA FP	FGF22 binding	Ecoli growth
1	CC(=O)c1ccc(NC(=O)c2ccc3c(c2)C(=O)N(c2ccccn2)C3=O)cc1	-4.7	.	1	7	-4.9	3	-5.1	i	0.66
2	CS(=O)(=O)N(CCc1ccccc1)CC(=O)N1CCN(c2ccc(F)cc2)CC1	.	-2%	.	.	.	23	1.6	.	0.76
3	OCCN(Cc1ccccc1)C(=S)Nc1ccc(Cl)cc1Cl	0.0	-5%	-35	-37	-3.7	-16	1.1	i	0.67
4	O=C(Nc1c(F)cc(F)cc1Br)c1ccco1	-37	-1%	.	.	.	-2	-0.8	i	0.63
5	Cc1nn(-c2cc(Cl)ccc2N)c(=O)c2ccccc12	.	2%	.	.	.	2	0.8	.	0.68
6	COCCN1C(=O)COc2ccccc2C1C(=O)NC(C)(C)C (centres undefined)	-0.4	.	.	.	.	.	0.0	i	.
7	CCOc1ccc(S(=O)(=O)NCC2CCCO2)cc1NC(=O)c1ccccc1F (centres undefined)	-5.9	.	8	5	-1.2	-1	4.6	i	0.68
8	O=C(C[C@H]1CC[C@H](NC(=O)C2CCOCC2)[C@H](CO)O1)NCC1CCCCC1	-0.4	.	3	10	0.9	.	.	i	.
9	Clc1ccc(-n2ncc3c(NCc4cccs4)ncnc32)cc1	.	16%	.	.	.	-8	2.2	.	0.74
10	COC(=O)c1ccccc1N(C)C(=O)C12CCC(C)(C(=O)O1)C2(C)C (centres undefined)	.	8%	.	.	.	-11	-2.0	.	0.77
11	CC1=C(C(=O)N(C(C)C)C(C)C)CC(CC(=O)NCCCCc2ccccc2)C(=O)N1Cc1ccccc1 (centres undefined)	0.4	0%	-8	-19	2.1	.	-1.6	i	.
12	CC1(C)NC(=O)C(CCc2ccccc2)NC1=O (centres undefined)	-1.6	.	-2	5	-3.4	.	4.2	i	.
13	Cc1cc(C)nc(Nc2n[nH]c(-c3ccccc3C)n2)n1	-1.3	1%	15	16	3.4	2	6.0	i	0.68
14	CO[C@@H](CN(C)C(=O)c1cc(Cl)cc(Cl)c1)[C@@H](C)CN(C(=O)Nc1ccc(F)cc1)[C@H](C)CO	1.5	.	-2	-6	0.8	.	.	i	.
15	Nc1nc(SC23CC4CC(CC(C4)C2)C3)ns1	1.9	-11%	13	8	-3.6	-8	-1.0	i	0.71
16	COc1ccc(N2CC(C(=O)N3CCC(c4nc5ccccc5[nH]4)CC3)CC2=O)cc1 (centres undefined)	0.6	6%	8	5	-0.3	.	-1.5	i	0.69
17	CN(C)C(CNC(=O)CCOc1ccccc1)c1ccco1 (centres undefined)	-0.4	-11%	20	16	3.9	-10	7.7	i	0.66
18	O=C(OCc1ccccc1)N1CCC2CC1c1ccc(-c3ccc4c(c3)OCO4)cc12 (centres undefined)	1.7	3%	7	10	-0.6	.	4.8	i	.
19	CCCSc1ccc([C@H]2N[C@@](CC(C)C)(C(=O)OC)[C@H]3C(=O)N(C)C(=O)[C@@H]23)cc1	-1.7	.	3	0	-1.5	-1	-3.9	i	.
20	OCC[C@H]1C[C@H](O)[C@@H](O)[C@@]2(CCCCO2)O1	-0.9	?	15	12	2.6	-4	-0.8	i	.
21	COc1ccc(CNC(=O)C(NC(C)=O)C(=O)Nc2ccc(OC)cc2)cc1 (centres undefined)	.	3%	.	.	.	-6	2.7	.	0.69
22	O=C(N[C@H]1C=C[C@H](CC(=O)N2CCC(Cc3ccccc3)CC2)O[C@@H]1CO)c1cnccn1	1.7	.	0	3	-1.1	.	.	i	.
23	CCCNC(=O)C(=O)Nc1cc2c3c(c1)CCC(=O)N3CCC2	-5.5	-2%	-2	2	-1.8	-24	4.7	i	0.72
24	C[C@@H]1CN([C@H](C)CO)C(=O)c2cc(NC(=O)c3ccncc3)ccc2O[C@H]1CN(C)CC1CCCCC1	-18	.	0	5	-0.5	.	.	i	.
25	CC(Oc1cccc(Cl)c1)c1ccnc2nc(/N=C/N(C)C)nn12 (centres undefined)	0.2	1%	5	-9	0.8	5	5.2	i	.
26	O=c1c(-c2ccccc2)c(O)cc(-c2ccncc2)n1-c1ccc(Cl)cc1	-0.9	11%	19	23	0.3	-1	0.3	i	0.66
27	Cc1ccc(-c2nc(C#N)c(NCCN3CCCCC3)o2)cc1	.	30%	.	.	.	92*	-0.2	.	0.62
28	CCc1ccc(CN(C)C(=O)CCc2nnc(CCc3ccccc3OC)o2)nc1	-1.5	.	4	-5	0.5	-4	-5.8	i	0.66
29	COc1ccc(CN(C)C[C@@H]2OCCCC[C@H](C)Oc3ccc(NC(=O)c4ccncc4)cc3C(=O)N([C@H](C)CO)C[C@@H]2C)cc1	3.0	.	1	-2	-0.8	.	.	i	.
30	CSCCC(NC(=O)c1ccccc1Cl)C(=O)N1CCC1 (centres undefined)	0.3	0%	7	-1	-3.2	0	1.2	i	0.68
31	CS(=O)(=O)N1CC(=O)N2[C@H](C1)[C@@H](c1ccc(C#CCC3CCCC3)cc1)[C@@H]2CO	4.8	.	-38	-52	5.7	.	.	i	.
32	CC1(C)CC(=O)C2=C(C1)Nc1cc(Cl)ccc1S2	0.3	2%	-4	-7	-3.6	49	1.1	i	0.67
33	O=C(CSc1nnc(-c2ccccc2)n1-c1ccccc1)NCc1ccco1	.	-5%	.	.	.	-1	1.8	.	0.72
34	COC(=O)c1cc(NC(=O)C2(S(=O)(=O)c3ccc(Cl)cc3)CC2)cc(C(=O)OC)c1	1.9	3%	0	2	-2.5	-1	-0.9	i	0.69
35	Cc1nnc(SCCn2c(N3CCC(C)CC3)nc3c2c(=O)n(C)c(=O)n3C)s1	.	0%	.	.	.	-7	-3.5	.	0.73
36	CC1CCCC(C)N1C(=O)CN1C(=O)C(C)(C)Oc2ccc(C(=O)NC3CCCC3)cc21 (centres undefined)	.	-2%	5	5	0.6	-5	4.2	.	0.68
37	C[C@H](CO)N1C[C@H](C)[C@H](CN(C)C(=O)c2ccc(F)cc2)Oc2ncc(C3=CCCC3)cc2C1=O	-1.2	.	-1	-2	0.6	.	.	i	.
38	CC(C)c1ccc(N2C(=O)[C@@H]3Cc4ccccc4CN3C2=O)cc1	.	22%	.	.	.	.	0.1	.	0.71
39	Cc1nc2nc[nH]n2c(=O)c1CCOC(=O)c1ccccc1F	-0.3	-6%	-17	-11	-0.9	14	-5.0	i	0.7
40	Cc1nc2scc(C)n2c(=O)c1S(=O)(=O)NCCc1ccccc1	-13	.	0	-2	0.2	.	0.1	i	0.7
41	O=C(NCc1ccc(Cl)cc1)C(=O)Nc1nccs1	0.9	?	13	1	5.2	-6	-4.3	i	0.73
42	Cc1cc(/C=C2\C(=N)N3N=CSC3=NC2=O)c(C)n1Cc1ccccc1	0.1	?	-33*	-13*	5.4*	88*	-3.4	i	0.67
43	C[C@H]1CN([C@@H](C)CO)C(=O)c2cc(C3=CCCC3)cnc2O[C@H]1CN(C)C(=O)NC1CCCC1	-23	.	0	-6	-2.7	.	.	i	.
44	C[C@H](CO)N1C[C@H](C)[C@H](CN(C)S(=O)(=O)c2ccccc2)Oc2ccc(NC(=O)Nc3ccc(F)cc3)cc2C1=O	-0.6	.	1	-4	0.4	.	.	i	.
45	N#C/C(=C\c1cccnc1)C(=O)Nc1ccc(SC(F)F)cc1	-2.8	-8%	-16	-9	8.1	54	-3.4	i	0.69
46	Cc1[nH]c2ccccc2c1CN1CCc2ccccc2C1	.	5%	.	.	.	-16	8.0	.	0.65
47	Cc1nc(/C(N)=N/OC(=O)c2ccccc2Cl)c(C(F)(F)F)o1	0.4	4%	14	-1	0.2	-6	1.6	i	0.62
48	CC(=O)Cn1ncc(Br)c(Br)c1=O	-0.5	-13%	2	-3	-1.3	.	1.5	i	0.64
49	CC(Sc1nnc(-c2ccco2)n1C)C(=O)Nc1nccs1 (centres undefined)	6.4	6%	-4	-2	-2.7	.	1.6	i	0.72
50	COc1ccc(CN=C2NC(=O)CC(C(=O)Nc3ccccc3C)S2)cc1 (centres undefined)	0.6	.	5	5	-0.4	2	3.0	i	0.73

# Continuation:
no.	SMILES	MLL AF4-AF9 inh	Vif A3G	Ecoli rRNA inh	Ecoli rRNA inh OD600	Ecoli rRNA inh RFP	ALR H2O2 inh	HNF4A DNA FP	FGF22 binding	Ecoli growth
51	O=C1CCC(C(=O)N2CCN(c3ccccc3)CC2)CN1CC1CCCCC1 (centres undefined)	-0.4	-1%	2	-7	2.4	19	2.8	i	0.73
52	COc1ccc(CNC(=O)C/C(C)=N/NC(=O)COc2ccccc2)cc1	-3.2	-9%	18	5	-0.2	.	-3.9	i	.
53	Cc1ccc2c(CN(C)Cc3cccc(Cl)c3)cc(=O)oc2c1C	0.0	.	-5	-11	16	.	-0.1	i	0.7
54	C[C@H](CO)N1C[C@H](C)[C@H](CN(C)Cc2ccc(-c3ccccc3)cc2)Oc2ccc(NC(=O)C3CC3)cc2C1=O	-2.6	.	1	-2	1.0	.	.	i	.
55	CN(Cc1ccc(Cl)s1)C(=O)CSc1nnc(C2CC2)n1C1CC1	1.6	5%	1	1	1.8	0	3.2	i	0.66
56	N#CC(=C(O)COC(=O)Cc1c[nH]c2ccccc12)c1nc2ccccc2[nH]1	-25	3%	-10	-24	-1.3	.	14	i	0.68&0.67
57	OC(CN(c1ccccc1)c1ccccc1)Cn1cnc2ccccc21 (centres undefined)	.	-1%	.	.	.	99*	-5.3	.	0.73
58	C=CCC1(O)C(=O)N2C(=C1C(=O)N1CCOCC1)c1ccccc1CC2(C)C (centres undefined)	-3.2	-5%	.	.	.	-4	1.6	.	0.73
59	COc1ccc(C(=O)N2CCC(n3nccc3NC(=O)C3CC3)CC2)c(OC)c1OC	-2.7	.	4	6	1.2	-6	-1.6	i	0.67
60	CCCn1ncc(CN2CCC(CO)(Cc3ccc(OC)cc3)CC2)c1C	-0.2	12%	15	5	-2.1	-1	5.3	i	0.71
61	O=C(CN1CCN(c2cccc(C(F)(F)F)c2)CC1)N(C1CC1)C1CCS(=O)(=O)C1 (centres undefined)	-0.9	14%	4	0	3.5	5	-2.0	i	0.7
62	CCOC(=O)N1CCN(S(=O)(=O)N2CCCC(C(=O)NCc3cccc(OC)c3)C2)CC1 (centres undefined)	0.5	5%	1	5	1.4	-6	7.7	i	0.65
63	Cc1nn(Cc2ccccc2Cl)c(C)c1NC(=O)NC12CC3CC(CC(C3)C1)C2	.	23%	.	.	.	0	2.2	.	0.74
64	C[C@H](CO)N1C[C@H](C)[C@@H](CN(C)S(C)(=O)=O)Oc2ccc(NC(=O)Cc3ccccc3)cc2C1=O	-0.2&0.6	.	2	2	-0.7	.	.	i	.
65	Cn1nnnc1Sc1ncnc2scc(-c3ccccc3C(F)(F)F)c12	-14	.	-18*	4.3*	6.0*	7	1.2	i	.
66	COc1ccc(NC(=O)C2CCN(c3nc(C)nc4c3CCC4)CC2)cc1	.	2%	.	.	.	-2	0.0	.	0.72

# Assay outcomes: PubChem BioAssay, several laboratories
